# ClpP mod = qHTS Assay for Activators of ClpP. ATP-dependent Clp protease proteolytic subunit (Bacillus subtilis (strain 168)), P80244. purified B. subtilis ClpP, FRET peptide cleavage, 20 min. Potency, µM (doses to about 57.5 µM), for inactives: top-dose activity change, negative = active. 1.9% of 340,000 active; active = well fitted falling curve with a large enough effect; inconclusive = small, poorly fitted or top-dose-only effect; inactive = no such curve, though single readings can be large or run the other way; also: potency is read from the fitted curve at half-maximal effect; the source files actives as falling curves though it sought activators and does not explain the sign; nearly all actives have a fitted effect of over 65% in size; many hits overshoot -100%
# Target sequence (P80244 whole entry, looked up): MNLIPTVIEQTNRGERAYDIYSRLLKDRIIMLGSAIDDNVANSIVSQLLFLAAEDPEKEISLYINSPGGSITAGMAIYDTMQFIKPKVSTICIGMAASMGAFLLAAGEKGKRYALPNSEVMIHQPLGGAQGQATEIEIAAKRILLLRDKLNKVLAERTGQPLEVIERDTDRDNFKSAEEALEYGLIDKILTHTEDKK
#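 Purified B. subtilis ClpP, 10 microg/mL final in Tris/HCl pH8 with KCl, BSA, glycerol and Tween-20, cleaved an Abz/nitrotyrosine-quenched decapeptide. Fluorescence (ex 320, em 430) was read at 0 and 20 min at room temperature. Delta was normalized to 5.8 microM ADEP and DMSO/no-enzyme controls.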
# Menin MLL FP FL = qHTS Assay for Inhibitors Targeting the Menin-MLL Interaction in MLL Related Leukemias: Competition With Fluorescein Labeled MLL-derived Peptide; Fluorescence polarization, fluorescein-MLL peptide displacement from menin; FP activity change, % at 61.4 µM; 290,000 tested, under 10 active; AID 1766, 2009; inconclusive = falling polarisation curve, or a change in total fluorescence; inactive = total fluorescence flat and polarisation flat or rising; no compound was filed as active; the % refers to the polarisation; negative = inhibition;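 also: % of control where 0% means no effect; inhibitors lower the polarisation; unlabelled MLL peptide was the positive control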
# gsp antagonist = qHTS for Antagonists of gsp, the Etiologic Mutation Responsible for Fibrous Dysplasia/McCune-Albright Syndrome: qHTS | gsp-mutant cells, cAMP HTRF, 30 min; control for the full effect not named in the record | Potency, µM (highest dose often 76.9 µM), without a hit: top-dose activity change, negative = inhibition, usual class: inhibitors | 0.4% of 340,000 active; active = falling curve of any shape with a large fitted effect; inconclusive = falling curve, mostly with a smaller effect; inactive = flat or rising curve; cell line not stated here;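 also: intracellular cAMP measured with PDE inhibitor Ro 20-1724 present during compound exposure; potency is read from the fitted curve at half-maximal effect; % is scaled to controls: 0 for no effect and ±100 for the full control effect; nearly all actives have a fitted effect of over 65% in size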
#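 HTRF cAMP measurement after 30 min RT detection following 30 min, 37C compound treatment alongside […] (added as 300 uM solution) in G418-selected cells seeded at 2000/well and grown 16–24 h.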
# gsp agonist = qHTS for Agonist of gsp, the Etiologic Mutation Responsible for Fibrous Dysplasia/McCune-Albright Syndrome: qHTS. 0.13% of 340,000 active. gsp mutant cells, cAMP HTRF, 30 min; control for the full effect not named in the record. Potency, µM (top dose mostly 76.9 µM), for the others: top-dose activation (cAMP increase), actives largely listed as activators. AID 624287, 2012; active = well fitted activation curve with a large enough effect; inconclusive = small, poorly fitted or top-dose-only effect, or another doubt; inactive = no such curve, though single readings can be large or run the other way; cell line not stated here;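 also: phosphodiesterase inhibitor Ro 20-1724 added with compounds to block cAMP breakdown; potency is read from the fitted curve at half-maximal effect; nearly all actives have a fitted effect of over 60% in size; about a fifth of the inactives were tested at one dose only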
#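 Cells stably selected in G418 were plated at 2000/well, grown 16-24 hr, then given compounds in DMSO with the PDE inhibitor […] (300 uM solution added) for 30 min at 37C; cAMP was read by HTRF.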
# TRPML1 ag = qHTS for Agonists of the Human Mucolipin Transient Receptor Potential 1 (TRPML1); Mucolipin-1 (Homo sapiens), Q9GZU1; TRPML1-expressing cells, Ca2+ dye fluorescence, FDSS; host cell line not named in the record; reference of the full effect not given here; activation, % (test concentration not listed); 0.12% of 410,000 active; in the data active = activation above about 50%; inconclusive = about 30% to 50%; inactive = below about 30%; also: 0% is about no effect; the text of the record puts the active cut at 80%
# Target sequence (Q9GZU1 whole entry, looked up): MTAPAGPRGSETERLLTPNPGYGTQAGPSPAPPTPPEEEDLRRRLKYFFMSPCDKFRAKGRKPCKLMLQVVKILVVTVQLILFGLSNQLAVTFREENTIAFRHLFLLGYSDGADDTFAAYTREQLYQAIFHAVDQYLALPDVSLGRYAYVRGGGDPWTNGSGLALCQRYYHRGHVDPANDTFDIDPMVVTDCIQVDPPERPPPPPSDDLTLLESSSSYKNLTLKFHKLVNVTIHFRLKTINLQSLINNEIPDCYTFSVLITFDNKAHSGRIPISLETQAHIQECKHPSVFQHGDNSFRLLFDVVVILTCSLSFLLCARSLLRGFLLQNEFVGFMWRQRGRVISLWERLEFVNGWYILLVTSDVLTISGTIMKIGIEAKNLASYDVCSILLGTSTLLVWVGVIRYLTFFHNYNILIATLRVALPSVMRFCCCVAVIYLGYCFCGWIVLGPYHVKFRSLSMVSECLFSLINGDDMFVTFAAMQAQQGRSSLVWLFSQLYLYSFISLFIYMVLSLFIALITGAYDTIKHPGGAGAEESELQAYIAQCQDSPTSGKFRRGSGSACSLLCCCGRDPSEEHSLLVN
#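 Tet-induced TRPML1-DL cells, 1,500 per well, cultured overnight, were loaded with a no-wash Ca2+ dye for 45–90 min. Calcium fluorescence was recorded on the FDSS for 110 s after compound addition, before the EC80 agonist (4 uM 54-4) was added.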
# TRPML1 inh = qHTS for Inhibitors of the Human Mucolipin Transient Receptor Potential 1 (TRPML1) | Mucolipin-1 (Homo sapiens), Q9GZU1 | activity change, negative = inhibition, % (no concentration beside the values) | TRPML1-inducible cells, Ca2+ dye fluorescence, FDSS; hits give low values; inhibition of EC80 agonist-evoked calcium signal | 0.02% of 390,000 active | AID 624415, 2012; in the data active means activity change below about -50%; inconclusive means about -30% to -50%; inactive means above about -30%;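 also: stimulus is agonist 54-4 at its EC80 concentration; % is scaled to controls: 0 for no effect and ±100 for the full control effect; compound concentration not given in the record; the text of the record puts the active cut at -80%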
#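 Tet-induced TRPML1-DL cells loaded with Ca8 no-wash calcium dye were read kinetically on FDSS. Compound addition was followed by EC80 agonist 54-4 (4 uM final); inhibition was read over 110 s.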
# Active calls of the source: *; ? = inconclusive; / = no result given; & = joins results of further samples; [ ] = dose if it differs, or a comment.
SMILES,ClpP mod,Menin MLL FP FL,gsp antagonist,gsp agonist,TRPML1 ag,TRPML1 inh
Cc1ccc(/C=N/NC(=O)NC23CC4CC(CC(C4)C2)C3)o1,-0.5%,1.5,-20.1%,1.6%[15.4 µM],1.8,-29.8
CC(C)c1ccc(/C=C2\NC(=S)N(Cc3cccnc3)C2=O)cc1,/,1.7,-21.4%,-12.1%,2.0,14.8
O=C(COC(=O)CSc1ccc([N+](=O)[O-])cc1)NCc1ccco1,-0.8%,/,3.5%,-0.4%[15.4 µM],0.5,17.2
CCN1C(=O)c2cccc3c(S(=O)(=O)Nc4ccc(OC)cc4OC)ccc1c23,-2.0%,2.6,0.3%,-4.5%,1.0,2.9
CCCC(=O)OC(C(=O)Nc1cc(C(F)(F)F)ccc1Cl)c1ccccc1 (stereo not drawn),-0.8%,3.0,2.1%,9.9%,4.5,-13.6
CCn1c(C)cc(/C=C2/SC(=S)N(CC(=O)O)C2=O)c1C,0.6%,?,-1.1%,7.0%,4.5,-1.5
CC1CC(C)CN(CCCNC(=O)CN2C(=O)CSc3ccc(S(=O)(=O)N4CCOCC4)cc32)C1 (stereo not drawn),-0.4%,-0.6,7.9%,?,0.0,-17.8
CCn1c(SCC(=O)NC2CCCC2)nnc1-c1ccco1,/,-0.6,0.2%,15.7%,1.0,0.4
COc1ccc(S(=O)(=O)NCC(=O)N(CC(=O)NCc2ccco2)Cc2ccc(F)cc2)cc1,/,5.0,1.0%,-2.3%[15.4 µM],-0.2,-0.7
COCCN(C(=S)Nc1ccccc1OC)C1CCN(C(C)C)CC1,/,-0.9,12.5%,9.4%[15.4 µM],0.5,-13.0
CCOC(=O)C(C)NC(=O)CCc1nnc2ccc(N3CCCCC3)nn12 (stereo not drawn),/,5.1,-1.8%,-0.8%,-0.4,2.9
COc1ccc(CNC(=O)c2ccc3c(c2)N(Cc2cc(C)ccc2C)C(=O)CS3)cc1,0.0%,/,/,/,0.0,-7.3
CCN(CCn1cccn1)C(=O)C1CCC(=O)N(CCc2cccc(F)c2)C1 (stereo not drawn),1.4%,/,6.0%,-4.1%,0.2,2.7
Cc1ccc(NC(=O)c2sc3nc(CCl)[nH]c(=O)c3c2C)c(C)c1,/,-0.9,-6.6%,10.9%[15.4 µM],-0.5,6.6
CCOC(=O)Cc1cc(=O)n2[nH]c(-c3ccccc3)c(-c3ccccc3)c2n1,/,2.8,-35.1%,14.4%[15.4 µM],-0.6,0.4
COc1ccc(NC(=O)CCNS(=O)(=O)c2ccc3c(c2)CCC(=O)N3)cc1,-0.7%,4.9,0.9%,-13.5%,0.7,-3.5
COc1cc(OC)cc(N2C(=O)N(CC(=O)c3ccc(F)cc3)c3ccccc3S2(=O)=O)c1,-7.2%,/,/,/,1.6,66.9
CCn1nnnc1SCC(=O)N(C)C1CCS(=O)(=O)C1 (stereo not drawn),0.2%,/,11.4%,-25.9%,-0.5,-3.4
COc1ccc(Nc2cc(C(=O)NCCCN3CCOCC3)c3ccccc3n2)cc1,0.7%,/,-3.6%,?,0.2,-9.5
O=C(NCCc1ccccn1)C1CCCN1S(=O)(=O)c1ccc(Cl)cc1 (stereo not drawn),/,0.6,-6.0%,-16.9%,0.6,5.8
CCCCCCCCCC(=O)Nn1cnc2ccccc2c1=O,-0.6%,0.7,-0.3%,-59.0%,2.3,-4.4
CCN(CC)C(=O)CSc1nnc(-c2ccc(S(=O)(=O)N3CCCC3)cc2)o1,-2.3%,2.4,-14.3%,10.7%,1.3,1.0
Cc1ccc(-c2noc(C3CCCN(C(=O)c4ccc(F)cc4F)C3)n2)cc1 (stereo not drawn),0.6%,1.1,-29.4%,-31.2%[inhibitor],1.7,-12.5
COc1ccccc1OC[C@H](O)CO,-1.5%,-3.7,-10.6%,/,0.6,6.6
COc1cc(O)c(C(CC(=O)N2CCCC2)c2cc(OC)c(OC)c(OC)c2)c(OC)c1 (stereo not drawn),0.1%,-1.5&0.7,2.7%,/,2.0&-0.4,-1.9&11.1
CCOc1ccc(-n2c(SCC(=O)NCc3ccco3)nc3c([nH]c4ccccc43)c2=O)cc1,?,/,2.0%,-5.5%,0.0&3.6,-8.2&38.8
O=C(O)C1CCCCC1C(=O)Nc1ccc(S(=O)(=O)N2CCCCC2)cc1 (stereo not drawn),/,/,0.8%,?,0.4,-9.5
O=C(Nc1ccc(Cl)cc1Cl)N1CCN(c2ncccn2)CC1,-2.5%,4.5,-4.3%,-119.4%[inhibitor],1.8,26.1
COc1ccc(CN2C=C3C(=O)C(C)(OC(=O)CCc4ccccc4)C(=O)C=C3C=C2c2ccc(C#N)cc2)cc1 (stereo not drawn),-1.2%,-2.0[11.7 µM],-4.8%,/,0.6,-0.3
COc1ccc(C)cc1NC(=O)C1CCCN(S(=O)(=O)c2cccnc2)C1 (stereo not drawn),-2.2%,0.1,-0.5%,?,-1.0,-11.1
CC(C)n1c(=O)c2ccccc2n1Cc1cn(-c2ccccc2)nn1,4.4%,/,/,/,-0.1,?
COC(=O)C1=C(C)NC(C)=C(C(=O)OC)C1c1ccc(OC(=O)c2oc3ccccc3c2C)c(OC)c1,?,-0.7,-2.1%,-29.4%,1.9,14.6
CCOC(=O)/C(C#N)=N\Nc1ccc(S(=O)(=O)Nc2nc(C)cc(C)n2)cc1,1.3%,-0.6,13.2%,?,0.1,7.7
C=CCC(CC(O)COCCC)C(=O)NNC(=S)Nc1ccccc1 (stereo not drawn),/,1.3,-5.0%,17.9%,0.3,-15.9
COc1ccc(S(=O)(=O)N2CC(C(=O)O)Oc3ccc(Cl)cc32)cc1 (stereo not drawn),-0.5%,0.9,0.6%,?,0.5,-8.9
O=C(NCC1OCCCN1S(=O)(=O)c1cc(F)ccc1F)C(=O)NC1CCCCCC1 (stereo not drawn),-0.1%,-0.2,34.9%[activator],8.5%,0.2,18.4
Nc1cccc(C(=O)OCC(=O)c2ccccc2)c1,-1.5%,6.1,15.1%,-38.6%[inhibitor],-0.3,-22.2
O=C(CCN1C(=O)c2ccccc2C1=O)NCCN1CCOCC1,-4.2%,4.0,15.0%,?,-0.3,1.2
CC(=O)NC(Cc1ccccc1)C(=O)NC1CCN(C(=O)NCc2ccccc2)CC1 (stereo not drawn),/,-0.8,0.8%,-0.6%[15.4 µM],0.7,18.0
COc1ccc2c(c1)c1c(c(=O)n(-c3cccc(Cl)c3)c(=O)n1C)n2C,0.4%,/,/,/,0.0,-5.6
CCOc1cc(CNc2ccc3c(c2)OCCO3)cc(Br)c1OCC,2.5%,4.6,5.7%,4.6%,0.0,-2.5
CC1CCN(S(=O)(=O)c2cn(CC(=O)Nc3ccc(OC(F)(F)F)cc3)cn2)CC1,-4.0%,-1.7,5.6%,3.3%,0.2,0.7
Cn1c(=O)c2c(-c3ccccc3Cl)n(-c3cc(Cl)ccc3O)cc2n(C)c1=O,?,/,/,/,0.0,33.0
CCOC(=O)N1CCN(S(=O)(=O)c2ccc(F)cc2)CC1,-2.1%,3.2,2.6%,-5.8%,0.5,2.8
COC(=O)c1ccc(/C=C2/SC(=S)N(CCCC(=O)Nc3ccc(O)cc3)C2=O)cc1,-1.7%,/,-10.4%,10.9%,0.2,3.7
CCc1nc2ccc(C(=O)NCCN3CCNC3=O)cn2c1N(C)CCC(C)C,-4.5%,/,/,/,-0.6,26.1
COc1ccccc1/C=C/C=C1\Oc2c(ccc(O)c2CN(C)C)C1=O,-0.3%,?,-11.0%,?,/,/
O=C(COC(=O)/C=C/c1cccc([N+](=O)[O-])c1)NCC1CCCO1 (stereo not drawn),/,-0.3,-8.1%,10.0%[15.4 µM],0.3,-8.8
CCOC(=O)CC(NC(=O)CCc1c(C)nc2c(-c3ccccc3)c(C)nn2c1C)c1ccc(OC(C)C)cc1 (stereo not drawn),-2.3%,/,/,/,1.2,30.1
CCOc1cc(C(=O)Nc2ccc(N3CCN(S(C)(=O)=O)CC3)cc2)cc(OCC)c1OCC,0.4%,-1.8,4.5%,-2.6%,-0.4,-8.2
COc1cc2[nH]c(=S)n(C3CC3)c(=O)c2cc1OC,-2.7%,-5.6,2.9%,0.2%[15.4 µM],0.9,-8.0
COc1ccc(S(=O)(=O)Nc2ccc(N3CCOCC3)cc2)cc1Br,-1.3%,2.3,?,-8.7%,-0.3,18.5
CC(C)(CN1CCCC1)NS(=O)(=O)c1ccccc1,-0.8%,-3.6,9.5%,22.4%,1.7,3.1
COc1cc(CN(C(=O)COc2ccc(C)c(C)c2)c2ccccn2)cc(OC)c1OC,-2.1%,/,/,/,2.1,-18.9
CCCCOc1ccc(-n2nc(C)cc2C)nn1,-1.6%,0.7,-5.0%,-5.5%,-0.1,23.9
COc1cccc(-n2c(=O)c3c4c(sc3n(Cc3ccc(F)cc3Cl)c2=O)CCCC4)c1,1.7%,/,/,/,1.6,-9.9
Cc1cc(=O)[nH]c(SCc2csc(-c3ccccc3)n2)n1,-1.0%,2.1,-7.8%,5.1%,1.8,-7.2
O=C(NCCCn1ccnc1)Nc1ccc2c(c1)OCO2,/,-0.5,9.4%,?,-0.8,-12.6
CN1CCN(S(=O)(=O)c2ccc(Nc3ccc(F)cc3)c([N+](=O)[O-])c2)CC1,/,/,1.9%,-14.3%[15.4 µM],-0.6,-6.3
CCOc1ccc(-n2c(SCC(=O)Nc3ccc(CC)cc3)nc3c(oc4ccccc43)c2=O)cc1,-1.1%,/,/,/,0.9,24.6

# Additional entries follow:
SMILES,ClpP mod,Menin MLL FP FL,gsp antagonist,gsp agonist,TRPML1 ag,TRPML1 inh
CCCNC(=O)c1ccccc1NC(=O)Cc1ccc(OC)c(S(=O)(=O)N2CCOCC2)c1,-5.6%,/,11.4%,2.0%[15.4 µM],-0.1,11.9
O=C(NC1CCCC1)c1ccc2c(c1)N(Cc1ccccc1)C(=O)c1ccccc1S2,0.8%,/,/,/,0.2,74.8
O=C(NC1CCSC1=O)c1cccc(Cl)c1 (stereo not drawn),/,0.5,4.4%,-33.8%[inhibitor],0.1,-5.6
CC(C)CC(COCc1ccc(C(F)(F)F)cc1)N1CCN(C(=O)c2ccc(C(F)(F)F)cc2)CCC1=O (stereo not drawn),-0.6%,5.4,-13.5%,16.7%,0.8,11.1
O=C(CC1C(=O)NCCN1Cc1cccc(Oc2ccccc2)c1)NCCc1cnccn1 (stereo not drawn),-5.6%,-14.0,-2.9%,-8.9%,0.3,-21.7
